Screening results (PubChem BioAssay)
VDR inh: vitamin D3 receptor (human) inhibition; AID 504847; Potency, µM, without a hit: max response, negative = inhibition, usual class: inhibitors; VDR-SRC2-3 peptide fluorescence polarization, 2 h; actives 0.93% (n = 400,000); active = well fitted inhibition curve with a large enough effect; inconclusive = small, poorly fitted or top-dose-only effect, or another doubt; inactive = no such curve, though single readings can be large or run the other way; also: series mostly up to about 120 µM
Target sequence (P11473 whole entry, looked up): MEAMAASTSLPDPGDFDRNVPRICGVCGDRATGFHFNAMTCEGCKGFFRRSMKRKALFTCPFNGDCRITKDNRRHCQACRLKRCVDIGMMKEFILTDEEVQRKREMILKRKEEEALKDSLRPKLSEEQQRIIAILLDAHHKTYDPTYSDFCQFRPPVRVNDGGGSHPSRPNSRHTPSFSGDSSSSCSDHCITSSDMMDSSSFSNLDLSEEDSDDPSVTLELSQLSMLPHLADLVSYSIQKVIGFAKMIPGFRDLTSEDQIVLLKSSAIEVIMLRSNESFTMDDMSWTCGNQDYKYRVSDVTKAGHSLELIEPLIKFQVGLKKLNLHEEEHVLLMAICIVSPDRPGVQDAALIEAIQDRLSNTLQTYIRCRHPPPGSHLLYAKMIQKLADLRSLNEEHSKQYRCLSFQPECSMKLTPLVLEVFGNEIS
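Fluorescence polarization assay of small-molecule disruption of VDR binding to coregulator peptide SRC2-3. Compounds and controls pin-transferred, then read after 2 h incubation at ambient room temperature.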
* marks the source's active call; other numbers are inactive results; u = inconclusive; [ ] = another dose, or the depositor's remark. % is scaled to controls: 0 for no effect and ±100 for the full control effect; potency is read from the fitted curve at half-maximal effect. Some of the compounds tested; the hit share may differ from the screen's.

SMILES | VDR inh
CCCOc1ccc(/C(O)=C2/C(=O)C(=O)N(CCN(C)C)C2c2ccco2)cc1 (stereo unspecified) | -4.2%
CCCCn1cc(S(=O)(=O)c2ccc(C)c(C)c2)c(=O)c2cc(F)c(N(CC)CC)cc21 | -2.9%
COc1ccc(-c2ccc(Nc3ccc(C(=O)N4CCOCC4)cc3)nn2)cc1OC | 17.7%
O=C1C2C3C=CC(C4CC34)C2C(=O)N1/N=C/c1c[nH]c2ccccc12 (stereo unspecified) | 4.4%
CCn1cc(C(=O)NCCc2ccc(Cl)cc2)c(=O)c2cc(S(=O)(=O)N(C)C)ccc21 | -15.4%
COc1ccc(/C=C/C(=O)NCCN=C2NS(=O)(=O)c3ccccc32)cc1 | 18.2%
O=C(C1=C[C@@H](C2CCCCC2)C[C@@H](OCCCCO)O1)N1CCN(Cc2ccc3c(c2)OCO3)CC1 | -3.5%
Cc1ccc(NC(=O)C(=O)NCc2ccco2)cc1 | 2.5%
CCCCNC(=O)CCn1c(=O)c2ccccc2n(Cc2ccccc2C#N)c1=O | 2.3%
CCn1c(C(=O)N2CCC(C(=O)NCc3cccs3)CC2)cc2sccc21 | -1.9%
CC1CCN(C(=O)CN(Cc2ccc(Cl)cc2)S(C)(=O)=O)CC1 | -3.6%
Cc1cc(C)c(S(=O)(=O)c2ccccc2)c(N2CCOCC2)n1 | -4.2%
COc1cccc(-c2cc(C(F)(F)F)n3ncc(C(=O)N4CCc5ccccc5C4)c3n2)c1 | 28.7%
CCOC(=O)c1c(-c2ccc(Cl)cc2)c(C#N)c(=O)n(N)c1N | 19.6%
O=C(CSc1nccc(=O)[nH]1)NN(c1ccccc1)c1ccccc1 | 10.7%
CCS(=O)(=O)c1nc(S(=O)(=O)c2ccc(C)cc2)c(N2CCC(O)CC2)s1 | -7.3%
CSc1cccc(CNC(=O)C2CCC(=O)N(CCc3ccccn3)C2)c1 (stereo unspecified) | -4.1%
COc1ccccc1CNC(=O)C1CSC2(C)CCC(=O)N12 (stereo unspecified) | -11.1%
CCC(=O)NC(=S)Nc1ccccc1C(F)(F)F | 11.2%
CCOC(=O)c1noc2ncnc(Nc3cc(Cl)c(OC)cc3OC)c12 | -1.7%

In the list so far, these contain two or more sulfur atoms.
SMILES | VDR inh
CCn1c(C(=O)N2CCC(C(=O)NCc3cccs3)CC2)cc2sccc21 | -1.9%
CCS(=O)(=O)c1nc(S(=O)(=O)c2ccc(C)cc2)c(N2CCC(O)CC2)s1 | -7.3%

Arranged by value in VDR inh (lowest first): 3 from the list above.
SMILES | VDR inh
CCn1cc(C(=O)NCCc2ccc(Cl)cc2)c(=O)c2cc(S(=O)(=O)N(C)C)ccc21 | -15.4%
COc1ccccc1CNC(=O)C1CSC2(C)CCC(=O)N12 (stereo unspecified) | -11.1%
CC1CCN(C(=O)CN(Cc2ccc(Cl)cc2)S(C)(=O)=O)CC1 | -3.6%

Later entries.
SMILES | VDR inh
Cc1ccc(-c2nc3nc(C)cc(Nc4ccccc4O)n3n2)cc1 | 10.3%
CC1CN(S(=O)(=O)c2ccc(C(=O)Nc3nccs3)cc2)CC(C)O1 (stereo unspecified) | 1.6%
CCOC(=O)c1c(C)nc(C)c(C(=O)OCC)c1-c1ccc(O)c(OC)c1 | u
CC(NC(=O)C1CC1)C(c1cccs1)N1CCOCC1 (stereo unspecified) | -5.8%
Cc1ccsc1C(=O)OCC(=O)Nc1cccc(S(=O)(=O)N2CCOCC2)c1 | 5.1%
CCCC1=C([O-])C2N=CC=CC2=[N+](c2ccccn2)C1=O (stereo unspecified) | 6.9%
CCOc1ccc(NC(=O)CC2C(=O)N(c3cccc(C)c3)C(=O)N2Cc2cccs2)cc1 (stereo unspecified) | 26.7%
CC(C)N(C(=O)CN1C(=O)NC(c2ccccc2)(c2ccccc2)C1=O)C(C)C | -11.0%
CN(Cc1cccnc1)C(=O)CNC(=O)COc1ccccc1 | 6.6%
N#Cc1ccc(OC(=O)c2cc(-c3ccc4c(c3)OCCO4)on2)cc1 | 7.3%
Nc1nnc(-c2cccc(F)c2)s1 | 10.8%
CCOC(=O)c1ccccc1NC(=S)N1CCC(C)CC1 | -9.8%
COc1ccccc1NC(=O)CNC(=O)c1ccc([N+](=O)[O-])cc1 | -3.6%
O=C(NCCSCc1cccc(Cl)c1)C1CCN(S(=O)(=O)Cc2ccccc2)CC1 | 0.0%
Cc1ccc(-c2[nH]c(-c3ccc(Cl)cc3)nc2SCC(=O)NCC2CCCO2)cc1 (stereo unspecified) | 1.2%
CC1CN(CCOc2cccc(Oc3ccccc3)c2)CC(C)O1 (stereo unspecified) | -9.1%
C[n+]1ccccc1/C=C/c1ccc(C#N)cc1 | -0.2%
CCOc1ccc(NC(=O)c2ccc(NC(=O)c3ccc(NC(N)=O)cc3)cc2)cc1 | -16.6%
COC(=O)c1c(NC(=O)Cc2cccs2)sc2c1CCC(C)C2 (stereo unspecified) | -4.2%
CCCn1c(CNc2ccc(Br)cc2)nc2ccccc21 | -19.8%
Cc1sc2ncnc(NCC(O)c3ccc([N+](=O)[O-])cc3)c2c1C (stereo unspecified) | -2.7%
CN(C)c1cccc(C(=O)NCCCSc2ccccc2)c1 | 14.2%
Cc1ccc(NS(=O)(=O)c2ccc(C)c(NC(=O)COc3ccc4ccccc4c3)c2)c(C)c1 | 15.2%
Cc1ccc(C(c2c(O)nc3n(c2=O)CCS3)c2c(O)nc3n(c2=O)CCS3)cc1 | 50.1µM*
Cc1cc(C(=O)Nc2ccc(Cl)cc2)n(-c2ccccc2)n1 | 22.4%
COc1cccc(CNC(=O)CCC2CCCN(C(=O)Cc3ccccc3F)C2)c1 (stereo unspecified) | -7.1%
O=C(CN1C(=O)C2CC=CCC2C1=O)Nc1nnc(C2CC2)s1 (stereo unspecified) | 19.2%
COc1ccccc1CN1CC(C(=O)NCc2ccc(N3CCCC3=O)cc2)CCC1=O (stereo unspecified) | -19.3%
CCn1c(SCC(=O)Nc2ccccc2C(=O)OC)nnc1-c1ccoc1C | 6.9%
Cc1cccc(C)c1NC(=O)Cn1cc(S(=O)(=O)Cc2ccc(F)cc2)c2ccccc21 | -10.7%
O=C(O)c1ccc(N2C(=O)CC(SC(=NCc3ccc4c(c3)OCO4)Nc3ccc(F)cc3)C2=O)cc1 (stereo unspecified) | 9.0%
Cc1c(NC(=O)c2ccc(CN3CCc4ccccc4C3)cc2)c(=O)n(-c2ccccc2)n1C | 7.8%
CC(=O)C1=C(C)NC(=O)NC1/C=C/c1ccccc1 (stereo unspecified) | -8.5%
COc1ccc(-c2noc(CN(C(=O)c3ccccc3Cl)C(C)C)n2)cc1 | 11.3%
Cc1ccc2[nH]cc(/C=C/c3cc[n+](C)cc3)c2c1 | -6.9%
CCOC(=O)C1Nc2ccc(C(F)(F)F)cc2C2C=CCC12 (stereo unspecified) | u
COc1cccc(N2CCN(C(=O)CCCCCn3c(=S)[nH]c4cc5c(cc4c3=O)OCO5)CC2)c1 | -16.4%
O=C1NC2CCCCC2C(=O)N1OS(=O)(=O)c1ccccc1 (stereo unspecified) | 15.8µM*
N/C(=N\OC(=O)c1cccs1)c1cccnc1 | -12.2%
CCNC(=O)Nc1ccc(-n2nc(C)c(C(=O)OCC)c2C)nc1 | -23.0%

2 of the compounds above, as a markdown table.
| molecule | VDR inh |
| --- | --- |
| CC(NC(=O)C1CC1)C(c1cccs1)N1CCOCC1 (stereo unspecified) | -5.8% |
| Nc1nnc(-c2cccc(F)c2)s1 | 10.8% |

Further results.
SMILES | VDR inh
COc1ccc(OCC(=O)N(Cc2cccs2)C2CCS(=O)(=O)C2)cc1 (stereo unspecified) | 1.9%
Cc1sc(NC(=O)C2CCCO2)c(C#N)c1C (stereo unspecified) | 7.1%
Cc1ccc(C(c2nnnn2CS(=O)(=O)c2ccc(C)cc2)N2CCCC2)cc1 (stereo unspecified) | -9.3%
CC(C)Oc1ccc(C(=O)N(Cc2ccc(N(C)C)cc2)Cc2ccco2)cc1 | 10.4%
COc1ccccc1N1CCN(C(=O)c2cccc(NC3=NC4CS(=O)(=O)CC4S3)c2)CC1 (stereo unspecified) | 4.7%
CC(=O)Oc1ccccc1-c1nc(C)nc(N(C)C(C)=O)n1 | 0.9%
CCOC(=O)c1noc(C)c1C(=O)Nc1nccs1 | 19.1%
Cc1oc2cc(O)ccc2c(=O)c1Oc1ccccc1Br | -13.5%
Cc1ccc(-n2c(=O)c3ccccc3n(CC(=O)NCc3ccco3)c2=O)cc1 | 6.6%
CCCCCCCCCCCCCCCC(=O)NCCc1ccc(O)c(O)c1 | -0.5%
COc1ccc(Cl)cc1NC(=O)CSc1nnc(C)n2c1cc1sccc12 | 12.6%
C[C@H]1C(=O)N(C)CCN1Cc1cn(C)nc1-c1ccc(Oc2ccccc2)cc1 | 9.5%
COc1cccc(-n2cnc3c(sc4nc(N5CCOCC5)c5c(c43)CCCC5)c2=O)c1 | -24.1%
O=C(COC(=O)CNS(=O)(=O)c1cccc(Br)c1)Nc1ccccc1Sc1ccccc1 | 0.0%
Cc1ccc(S(=O)(=O)NCCc2nnc3ccc(SCc4ccc(F)cc4)nn23)cc1 | 9.5%
CS(=O)(=O)c1cccc(NC(=O)CSc2nnc3n2CCCCC3)c1 | -2.8%
CC(C)C[C@@H](/C=C/S(C)(=O)=O)NC(=O)[C@H](CC(C)C)NC(=O)[C@H](CC(C)C)NC(=O)OCc1ccccc1 | 5.0%
C/C(=N\NC(=O)c1cc(-c2ccncc2)nc2ccccc12)c1ccc(OC(F)F)cc1 | 10.5%
COc1ccc(CCNC(=S)NC(=O)/C=C/c2ccc(C)cc2)cc1OC | -7.2%
CCc1ccc(C(=O)c2cn(CC(=O)Nc3ccc(OC)cc3)c3cc4c(cc3c2=O)OCCO4)cc1 | u

Overlap with the part before: two entries, then new ones.
SMILES | VDR inh
COc1ccc(CCNC(=S)NC(=O)/C=C/c2ccc(C)cc2)cc1OC | -7.2%
CCc1ccc(C(=O)c2cn(CC(=O)Nc3ccc(OC)cc3)c3cc4c(cc3c2=O)OCCO4)cc1 | u
CCOc1ccc(N2CC(NC(=O)Cc3cccs3)CC2=O)cc1 (stereo unspecified) | -9.8%
O=C(Nc1ccccc1)/C(=C\c1ccc2c(c1)OCO2)NC(=O)c1ccco1 | -28.8%
COc1cc(C(=O)Nn2cnnc2)ccc1OC(F)F | 9.0%
CC(=O)c1cccc(S(=O)(=O)N2CCC(C(=O)Nc3cccc(C(=O)NC4CC4)c3)CC2)c1 | -18.5%
CC(C)(C)n1nnnc1C(c1ccccn1)N1CCN(C(c2ccccc2)c2ccccc2)CC1 (stereo unspecified) | 20.3%
CCc1nnc(NS(=O)(=O)c2ccc(NC(=O)c3cc(Cl)ccc3OC)cc2)s1 | 18.7%
Cc1ccc(C)c(NC(=O)CN(C)C(=O)c2cc(C3CC3)nn2-c2ccccc2)c1 | -2.3%
Cn1c(=O)n(C)c2cc(/C=N/NC(=S)NCc3ccccc3)ccc21 | 2.1%
O=C(NCCC1CCCCN1S(=O)(=O)c1ccccc1)C(=O)NCc1ccccc1F (stereo unspecified) | -8.1%
COc1ccc(/C=N/NC(=O)c2cc(C)oc2C)cc1OC | 0.1%
COc1ccc(-c2nc(SCC(=O)NC3CCCC3)c(-c3ccc(F)cc3)[nH]2)cc1 | 8.9%
CC1CCC(NC(=O)C(C)N2C(=O)C3CCCCC3C2=O)CC1 (stereo unspecified) | 17.9%
O=C(NC1c2ccccc2-c2ccccc21)c1ccccc1 | -22.2%
COc1ccc(NC(=O)C2=CN3CCS(=O)(=O)N=C3C=C2)c(OC)c1 | -2.6%
Cc1ccc2[nH]c(=S)cc(C)c2c1 | -22.5%
Cc1ccc(S(=O)(=O)CCC(=O)OCC(=O)NCCc2ccc(F)cc2)cc1 | -1.2%
CCC(=O)c1ccc(OCC(=O)OCC(=O)NCCC2=CCCCC2)cc1 | 14.9%
CC(=O)NC(Cc1ccc(F)cc1)C(=O)NC1CCN(C(=O)Nc2ccc(F)cc2)CC1 (stereo unspecified) | -17.1%
COc1ccc(-c2cn[nH]c2-c2ccc(OCc3ccc(F)cc3)cc2O)cc1OC | -2.8%
CCC(c1nnnn1CCOC)N(Cc1ccc(C)cc1)Cc1cc2cc(OC)ccc2[nH]c1=O (stereo unspecified) | -5.4%
CC(=O)c1cccc(NC(=O)COC(=O)CCC(=O)c2cccs2)c1 | -12.2%
CCCCNC(=O)CSc1nnc(-c2cccc(S(=O)(=O)N3CCOCC3)c2)o1 | 6.0%
C/C(=C\c1ccccc1)C(=O)N1CCN(Cc2ccc3c(c2)OCO3)CC1 | 1.9%
CCOC(=O)C1CCN(Cc2c(O)ccc3ccccc23)CC1 | -2.8%
CCCCN(C)C(=O)c1nc2ccccn2c1CN1CCN(c2cnccn2)CC1 | 7.6%
CCN(CC)c1ccc(C=C(c2nnnn2-c2ccccc2)c2nnnn2-c2ccccc2)cc1 | -7.3%
CCCOc1ccc(N2C(=O)CC(N(Cc3ccco3)C(=O)CC)C2=O)cc1 (stereo unspecified) | -21.6%
CN(c1ccc(C(=O)NC2CCCCC2)cc1)S(=O)(=O)c1ccccc1 | 7.1%
O=C(OCC(=O)c1ccc(Cl)s1)c1cnccn1 | 2.7%
Cc1cc(F)ccc1S(=O)(=O)Nc1ncnc2sc3c(c12)CCC3 | -6.7%
CCOCCCn1c(C)nc2c(c1=O)c1nc3ccccc3nc1n2-c1ccc(C)cc1 | 33.0%[activator]
CN(C)S(=O)(=O)N1CCN(c2cccc(Cl)c2)CC1 | -6.2%
Cc1c(Cc2ccccc2)c(=O)n2c([nH]c3ccccc32)c1C#N | -1.1%
COc1ccc(NC(=O)C(=O)NNC(=O)COc2ccc(OC)cc2)cc1 | -0.7%
Cc1ccc(NC(=O)NCc2ccccn2)cc1Cl | -5.0%
Cc1cc(SCc2ccc(F)cc2)nc(=O)[nH]1 | -1.9%
COc1ccc(NC(=O)C2=C(C)Nc3nc(CCCO)nn3C2c2ccc(O)cc2)cc1 (stereo unspecified) | -1.2%
CC(=O)Nc1ccc(/C(C)=N/NC(=O)c2ccc(COc3ccccc3Cl)o2)cc1 | 11.4%
Cc1ccc(S(=O)(=O)N2CCCC2C(=O)Nc2cc(C)on2)cc1 (stereo unspecified) | 18.1%
